KCNQ2 enhance: enhances the rat KCNQ2 potassium channel | O88943 | CHO-K1 KCNQ2, FluxOR thallium flux fluorescence; hits give high values | B-score at 10 µM | actives 0.54% (n = 310,000) | AID 2239;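 active = fluorescence ratio B-score at least 3 SD of library B-scores, with initial fluorescence B-score within 3 SD, cut at about 5.3 in these data; same plate scores as AID 2156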;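 also: B-score of peak minus minimum over baseline fluorescence ratio after K+ and Tl+ stimulus; positive B-score means potentiation of KCNQ2 with more thallium influx and brighter signal; only the inactives scoring about 0 or higher are listed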
Target sequence (O88943 whole entry, looked up): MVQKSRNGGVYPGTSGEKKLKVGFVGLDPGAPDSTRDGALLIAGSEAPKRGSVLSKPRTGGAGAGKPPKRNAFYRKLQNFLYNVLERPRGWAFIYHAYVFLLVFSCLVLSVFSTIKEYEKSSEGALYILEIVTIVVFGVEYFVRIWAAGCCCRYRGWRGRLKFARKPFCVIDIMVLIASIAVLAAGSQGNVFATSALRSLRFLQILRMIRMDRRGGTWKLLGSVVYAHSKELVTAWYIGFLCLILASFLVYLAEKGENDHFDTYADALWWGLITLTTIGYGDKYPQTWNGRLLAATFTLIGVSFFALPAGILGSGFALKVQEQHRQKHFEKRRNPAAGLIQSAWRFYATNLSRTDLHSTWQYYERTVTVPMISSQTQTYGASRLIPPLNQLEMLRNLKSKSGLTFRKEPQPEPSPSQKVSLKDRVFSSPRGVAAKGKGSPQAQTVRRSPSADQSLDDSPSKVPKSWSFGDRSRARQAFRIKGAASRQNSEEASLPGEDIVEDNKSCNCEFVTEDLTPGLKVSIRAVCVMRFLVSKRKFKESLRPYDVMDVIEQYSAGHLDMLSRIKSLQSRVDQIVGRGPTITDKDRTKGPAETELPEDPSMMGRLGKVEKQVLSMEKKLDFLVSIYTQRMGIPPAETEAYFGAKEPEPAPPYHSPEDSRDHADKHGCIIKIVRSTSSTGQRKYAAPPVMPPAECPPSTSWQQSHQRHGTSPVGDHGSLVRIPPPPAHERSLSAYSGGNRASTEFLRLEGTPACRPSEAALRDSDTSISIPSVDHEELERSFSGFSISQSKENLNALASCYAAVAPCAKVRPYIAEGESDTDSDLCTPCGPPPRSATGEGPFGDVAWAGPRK
KCNQ2 enhance baseline: second read-out of KCNQ2 enhance, no call of its own (marks repeat the call); B-score; compound at 10 µM; measured here: initial fluorescence intensity artifact check;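 brightness before thallium and not channel activity; 0 = typical well and far values either way flag optical interference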
* = called active by the depositor.

SMILES	KCNQ2 enhance	KCNQ2 enhance baseline
CCOC(=O)Oc1ccc2c(=O)c(Oc3cccc(C)c3)coc2c1	1.1	-3.4
NC12NC(=O)C3(O)C4C5CC(C6C5C3C61)C42 (stereo unspecified)	0.01	2.5
COc1cc(/C=N/N(C)S(=O)(=O)c2ccc(C)cc2)cc([N+](=O)[O-])c1O	1.4	-0.52
O=C(NC(=S)Nc1ccccc1N1CCOCC1)c1ccc(-c2cc(Cl)ccc2Cl)o1	2.2	1.1
Cc1ccc(N(C(=O)Cn2nnc3ccccc32)C(C(=O)NC2CCCCC2)c2cn(C)nc2C)cc1 (stereo unspecified)	0.3	-0.62
Cc1ccc(C(C)C)c(OCC(=O)NN2C(=O)c3ccccc3C2=O)c1	0.54	-0.44
Cc1nnc(SCC(=O)Nc2ccc(-c3nc4ccccc4s3)cc2)s1	0.59	-0.45
CSc1c(C#N)c(N)c(C#N)c2c1COC(C)(C)C2	0.89	0.43
CCCN1C2CCCC1CC(NC(=O)c1cc(OC)c(OC)c(OC)c1)C2 (stereo unspecified)	0.52	0.26
CC(Sc1nnnn1-c1ccc(O)cc1)C(=O)NC1CCCCC1C (stereo unspecified)	0.08	-1.1
CNC(=S)NNC(=O)c1ccccc1Br	1.9	2
Cc1cc(C)cc(C(=O)NC(CC(N)=O)c2ccc(N3CCN(C)CC3)c([N+](=O)[O-])c2)c1 (stereo unspecified)	0.25	-0.65
CCOc1ccccc1NC(=O)c1cc(Cl)ccc1NC(=O)c1ccco1	1.2	2.3
Oc1ccccc1/C=N/Nc1ncc(Br)cn1	1.5	-2.4
CCCC(=O)NC(=S)Nc1cccc(-c2nc3ncccc3o2)c1	1.8	-1.1
COC(=O)CCCNC(=O)c1ccccn1	0.24	1.5
Cc1nn(Cc2cccc(F)c2)c(C)c1NC(=O)c1c([N+](=O)[O-])c(C)nn1C	0.24	-0.94
COC(=O)c1c(NC(NC(=O)CC(C)C)C(Cl)(Cl)Cl)sc2c1CCC2 (stereo unspecified)	5	0.73
Nn1c(SCC(=O)NC2CCCCC2)nnc1-c1ccc(Cl)cc1	2.4	-2.4
Brc1ccc(-c2nnc3n2CCCCC3)cc1	0.5	0.97
CCOC(=O)c1ccc(NC(=O)NCCN2CCCCC2)cc1	0.54	-0.47
NC(=O)CSc1nc(-c2ccccc2)nc2c1CCCC2	0.22	-0.03
COc1ccccc1N(CC(O)Cn1ccnc1C)S(=O)(=O)c1ccc(C)cc1 (stereo unspecified)	0.94	0.15
CCN(C(=O)C(C)N1C(=O)/C(=C/c2ccco2)SC1=S)C1CCS(=O)(=O)C1 (stereo unspecified)	1	-0.76
CC(C)(C)NC(=O)Cn1c(SCC(=O)N2CCCCCC2)nc2ccccc21	0.57	-0.88
COc1ccc(OC)c(N(C(=O)c2ccco2)C(C(=O)NC2CCCC2)c2cc(OC)c(OC)c(OC)c2)c1 (stereo unspecified)	0.71	-1.8
CCCc1nnc(NC(=O)C(C)N2C(=O)C3C4C=CC(C4)C3C2=O)s1 (stereo unspecified)	1.4	-1.8
O=C(NCCc1c[nH]c2ccccc12)c1ccc2c(c1)OCO2	0.45	2.9
Cc1ccc(-n2nnc3c(=O)n(Cc4ccccn4)cnc32)cc1C	0.15	0.15
CCCN(CCC)CCNS(=O)(=O)c1ccc2c(c1)oc(=O)n2C	1.3	-0.71

Some of these compounds in order of their number in KCNQ2 enhance, ascending.
SMILES	KCNQ2 enhance
O=C(NCCc1c[nH]c2ccccc12)c1ccc2c(c1)OCO2	0.45
CCOC(=O)c1ccc(NC(=O)NCCN2CCCCC2)cc1	0.54
COC(=O)c1c(NC(NC(=O)CC(C)C)C(Cl)(Cl)Cl)sc2c1CCC2 (stereo unspecified)	5

Other entries follow:
SMILES	KCNQ2 enhance	KCNQ2 enhance baseline
Cc1cc(-n2[nH]c(C)c(C)c2=O)nc(-c2ccccc2O)n1	4.5	-1.4
COc1ccc(COC(=O)Nc2c(SC)nsc2SC)cc1	2.1	0.34
Cc1ccc(O)c(NC(=O)CSc2n[nH]c(-c3ccccc3)n2)c1	0.16	-0.24
O=C(NN=C1CCCCCC1)C(=O)Nc1cccc(Br)c1	0.42	-2
C#CCOc1ccc(/C=C2/C(=O)NN(c3ccccc3)C2=O)cc1OC	0.75	-0.54
COc1ccccc1-c1nnc(N)s1	1.3	0.84
CCN1CCCn2c1nc1c2c(=O)n(C)c(=O)n1C	1.8	-1.9
Cn1c(=O)[nH]c(=O)c2c1nc(NCCCO)n2CCOc1ccccc1	1.8	0.52
COc1ccc(-c2cccc(NC(=O)c3ccco3)c2)nn1	2.1	-0.69
CCc1nnc(NS(=O)(=O)c2ccc(N)cc2)s1	0.08	1.1
CC(=O)COc1cc(C)cc2oc(=O)cc(-c3ccccc3)c12	1.1	-0.67
C=CCNc1nc(C(=O)OCC(=O)c2ccc(OC)cc2OC)cs1	1.3	0.02
OC(COc1ccc(-c2ccccc2)cc1)CN1CCOCC1 (stereo unspecified)	0.36	-0.62
CCOC(=O)c1csc(-c2ccc([N+](=O)[O-])cc2)n1	0.59	1.2
CC(C)=N/N=C1/NC(=O)C(CC(=O)Nc2cc(Cl)ccc2C)S1 (stereo unspecified)	5.8*	0.16*
Cc1cccc2c(=O)c(C(=O)NCCCN3CCOCC3)c[nH]c12	1.9	-1.7
Cc1ccc(Nc2nc(-c3c(C)nc4ncccn34)cs2)cc1	1.3	0.76
CCn1c2ccccc2c2cc(NC(=O)CN3CCCC3)ccc21	3.4	1.4
OC1(c2ccc3c(c2)OCO3)CCN(Cc2ccc(F)cc2)CC1	0.26	-1.7
COc1ccc(C2C(C(N)=O)=C(C)Nc3nc(-c4ccccc4OC)nn32)cc1OC (stereo unspecified)	0.79	-0.35
Cc1nc2ccccn2c1C(=O)/C=C/c1ccc(F)cc1	0.01	-2
COc1ccc(OC)c(NC(=O)CSc2ccccc2)c1	0.09	-1.1
CC(C)N1CC(O)=C(c2nc3ccccc3c(=O)[nH]2)C1=N	1.4	0.34
C=CCN1C(=O)C(CC(=O)O)SC1=Nc1ccc(C)cc1 (stereo unspecified)	0.98	0.24
C#CC(=O)N(c1ccc(OC)cc1OC)C(C(=O)NC1CCCC1)c1cccs1 (stereo unspecified)	0.06	-0.86
CCOc1ccc(NC(=O)NCC2CCN(Cc3ccc(F)cc3)CC2)cc1	2.3	0.02
CCCc1cc(=O)oc2cc(C)cc(OC(C)C(=O)NCc3cccnc3)c12 (stereo unspecified)	0.34	-0.67
CCOC(=O)/C=C/C(=O)Nc1ccc(-c2nnc3n2CCCCC3)cc1	2.3	-2.7
Cc1cc(N2CCN(C)CC2)nc(-c2ccccc2O)n1	0.92	0.11
Cc1ccc(C(c2nnnn2CS(=O)(=O)c2ccc(C)cc2)N2CCN(c3ncccn3)CC2)cc1 (stereo unspecified)	1.8	0.49
O=C(CCC1CCCCC1)Nc1c2c(nn1-c1ccc(F)cc1)CS(=O)(=O)C2	0.82	0.82
Cc1ccc(C(C)(C)NC(=O)C2CCC(=O)N(Cc3ccccc3F)C2)cc1 (stereo unspecified)	1.4	0.03
Cn1cccc1/C=C1\SC(=O)N(CC(=O)Nc2ccc(F)cc2)C1=O	0.76	-2.2
COc1ccc(S(=O)(=O)N(C)CC(=O)Nc2ccccc2OC)cc1	0.16	0.57
Cc1c(C#N)c2ccccc2n1CC(=O)NCc1cccnc1	1.5	0.35
C/C(N)=C(/C#N)C(=O)CSc1cc(C)c2cc(C)cc(C)c2n1	1.5	-0.28
Cc1ccc(C(=O)Nc2cccc3cccnc23)cc1Br	0.38	-0.61
O=C(COC(=O)CNC(=O)c1ccco1)Nc1ccc(F)cc1	0.9	0.55
Cc1oc(-c2cccs2)nc1CN1CCN(C2CCCC2)C(CCO)C1 (stereo unspecified)	0.99	1.3
CCCCC1=CC2=CC(=O)C(C)(OC(=O)CC)C(=O)C2=CN1CCc1c[nH]c2ccccc12 (stereo unspecified)	0.32	-0.57
O=C(Nc1ccc(Cl)cc1)Nc1nnc(Cc2ccc([N+](=O)[O-])cc2)s1	1.4	-3.1
COc1ccc(NC(=O)C(NC(=O)Cc2cccs2)c2ccccc2)cc1 (stereo unspecified)	0.9	-0.83
COc1cc2[nH]c(=S)nc(NCc3cccs3)c2cc1OC	1.2	-0.83
O=C(COC(=O)c1ccc(S(=O)(=O)N2CCCC2)cc1)Nc1cccnc1Cl	0.41	0.86
CCOc1ccc(Oc2ccc(C(F)(F)F)cc2N)cc1	0.24	1.9

Looked up above.
KCNQ2 enhance result of `COc1ccc(S(=O)(=O)N(C)CC(=O)Nc2ccccc2OC)cc1` → 0.16
KCNQ2 enhance result of `CCOc1ccc(Oc2ccc(C(F)(F)F)cc2N)cc1` → 0.24
KCNQ2 enhance baseline result of `COc1ccc(NC(=O)C(NC(=O)Cc2cccs2)c2ccccc2)cc1` (stereo unspecified) → -0.83
KCNQ2 enhance result of `Cc1ccc(C(C)(C)NC(=O)C2CCC(=O)N(Cc3ccccc3F)C2)cc1` (stereo unspecified) → 1.4

Carrying on.
SMILES	KCNQ2 enhance	KCNQ2 enhance baseline
CC1=Nn2c(nnc2-c2cccs2)SC1	0.12	-0.56
COCCNC(=O)c1ccc(NC(=O)C2(c3ccccc3)CCCC2)cc1	0.6	0.53
CC1=CC(c2ccccc2)NC(=S)N1 (stereo unspecified)	0.08	0.34
CC1Cc2ccccc2N1C(=O)CSc1nnc2sc3ccccc3n12 (stereo unspecified)	0.45	0.13
COc1ccc(C(C(=O)NC2CCCCC2)N(CC2CCCO2)C(=O)CNC(=O)c2ccco2)cc1 (stereo unspecified)	0.27	0.28
CCN(CC(=O)N1CCCCC1)S(=O)(=O)c1ccccc1	0.33	-2.1
Cc1ccc(C)c(-n2c(-c3csc(C)c3C)n[nH]c2=S)c1	0.01	0.37
CCOC(=O)N1CCN(c2nc3ccc(C(=O)c4ccccc4)cc3n3cnnc23)CC1	0.32	-0.14
Cc1ccc(S(=O)(=O)NCCc2ccncc2)cc1	0.58	0.69
COCc1nnc(NC(=O)CCC2CCCCC2)s1	1.3	-0.78
Cc1ccc2[nH]c3c(=O)n(Cc4ccncc4)cnc3c2c1	0.24	-1.7
CCOC(=O)C1(CCc2ccccc2)CCN(C(=O)CCc2cnn(C)c2)CC1	0.82	-0.61
COc1ccccc1CCC(=O)OCC(=O)Nc1ccc2[nH]c(=O)[nH]c2c1	2.3	-1.8
Cc1ccc(S(=O)(=O)N2CCC(C(=O)NCCC3=CCCCC3)CC2)c(C)c1	3.3	-0.18
CCOC(=O)NC1(NCC(C)C)Oc2ccccc2O1	0.02	0.45
Cc1ccc(NC(=O)C(=O)NC2CCCCC2)cc1	0.09	-0.16
O=C(OCc1cc2ccccc2[nH]c1=O)c1cccc([N+](=O)[O-])c1	0.01	1.1
COc1ccc(C(=O)NC(=S)N2CCCCC2)cc1	1.5	-1.6
Cc1oc(-c2ccccc2F)nc1CS(=O)CC(=O)NC1CCCCC1 (stereo unspecified)	0.87	-1
CCc1ccc2[nH]c(=O)c(CN(Cc3nnnn3C3CCCC3)C3CCCCC3)cc2c1	1.5	0
CCc1cc(OCCOCCN(C)C)ccc1Cl	1.1	-2.2
Cc1cc(C)nc(SCc2nnc(SCC(=O)OC3CCCCC3)o2)n1	0.27	-1.3
O=C(Nc1ccc(S(=O)(=O)NCc2cccnc2)cc1)c1ccco1	1.5	0.24
Cc1cccc(NC(=O)CSc2nc3[nH]ncc3c(=O)[nH]2)c1C	0.8	-1.5
COc1ccc(C(C(=O)NCc2ccccc2)N(Cc2cccnc2)C(=O)c2snc(C(N)=O)c2N)cc1OC (stereo unspecified)	0.78	0.2
N/C(=N\OC(=O)C12CC3CC(CC(C3)C1)C2)c1ccccn1	0.83	-0.03
CCn1cc(S(=O)(=O)NCc2ccccc2Br)cn1	0.01	-0.25
O=C(NC1CC2CCCC(C1)N2C(=O)N1CCCCC1)C1CCCCC1 (stereo unspecified)	0.34	3
Nc1cnn(C2OC(CO)C(O)C2O)c(=O)n1 (stereo unspecified)	0.04	-1.8
Cc1cc(CNC(=O)Cn2nc(C)c([N+](=O)[O-])c2C)c2ccccc2n1	1	-0.04
CN(C)/C=C1\C(=O)NN=C1c1ccccc1	0.58	3.7
CSCC[C@H](N)C(=O)N1CCC(C(=O)N[C@H](C(=O)NCc2ccccc2F)C(C)C)CC1	0.31	-0.36
CCOc1ccc(NC(=S)NNC(=S)Nc2cccc(C(F)(F)F)c2)cc1	2	-1.4
CSc1nnc(-c2ccccc2Cl)o1	0.55	0.48
Cc1ccc(C)c(NC(=O)CN(C)C(=O)[C@@H](NC(N)=O)C(C)C)c1	1.5	-0.64
O=C(Nc1cccc(Br)c1)c1ccc2nc(N3C(=O)CCC3=O)sc2c1	1.6	-0.82
CCOC(=O)c1sc2nc(C)nc(NCc3cccnc3)c2c1C	0.01	-0.85
COc1ccc(CN2CCCC(C(=O)N3CCc4ccccc4C3)C2)cc1OC (stereo unspecified)	0.64	-0.89
CC1=NN(c2ccc([N+](=O)[O-])cc2)C(=O)/C1=C\N(C)C	0.64	1.1
CCCCn1c(SCC(=O)OCC)nc2c1c(=O)[nH]c(=O)n2C	0.76	0.23
CCC(=O)N/C(=N/c1nc(C)cc(C)n1)Nc1ccc(OC)cc1	0.61	0.03
CCC(NC(=S)Nc1ccccc1)C(=O)O (stereo unspecified)	0.93	-0.87
CCc1nnc(NS(=O)(=O)c2ccc(NC(=S)NC(=O)/C=C/c3ccc(C(C)C)cc3)cc2)s1	2.6	-2

Full records from above. Order of screens: KCNQ2 enhance | KCNQ2 enhance baseline
Record of CSc1nnc(-c2ccccc2Cl)o1 → 0.55 | 0.48
Record of COc1ccc(CN2CCCC(C(=O)N3CCc4ccccc4C3)C2)cc1OC (stereo unspecified) → 0.64 | -0.89

Only part of the results is shown; count on the stated rates, not on these rows.
